MT1-MMP act inh: MT1-MMP (human) activation inhibition | HT1080 RFP-PRO-GFP cells, GFP/RFP ratio fluorescence, overnight; percent of plate control window, DMSO zero | GFP/RFP ratio change, % at 20 µM | actives 0.061% (n = 360,000);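 active = GFP/RFP ratio change of at least 30% with cell ATP level not reduced by more than half and red fluorescence within 50% of control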; note: strong numbers were not always called active
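Assay system: HT1080 RFP-PRO-GFP cells. Benchmarks: DMSO vehicle wells and RFP-L50D-GFP reporter cell wells. Times: overnight cell settling, then overnight compound exposure, 37 °C, 5% CO2. Compound: 20 µM single dose, 1% DMSO. Read-out basis: GFP/RFP fluorescence ratio.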
eIF4H FP inh: inhibitors of RNA binding by human eIF4H | actives 0.94% (n = 290,000) | Q15056 | eIF4H fluorescence polarization binding assay | inhibition, % at 35 µM | AID 2012;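 active = 50% or more with normal probe brightness, or confirmed in later tests; inconclusive = above 50% with abnormal brightness, or retests that disagree; inactive = below 50% or failed in later tests; about a fifth of its hits are not listed in these tables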;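 note: calls also rest on retests at 20 µM and on dose response follow-up; 0% = protein and probe with vehicle and 100% = probe without protein; strong numbers were not always called active; many hits fall short of the cut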
Yeast UUG start: alters start codon recognition fidelity in yeast. S. cerevisiae UUG-firefly luciferase reporter, luminescence/redox ratio. actives 0.13% (n = 350,000). activity score, % at 18.7 µM;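 active = replicate mean at a twofold rise or more, about +100% in these data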;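 note: firefly luciferase made from a UUG start codon reports start codon fidelity; reporter light over untreated wells divided by growth signal over untreated wells; some hits fall short of that in this replicate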
Rce1 inh: inhibitors of yeast Ras-converting enzyme. Q03530. calls only. yeast membranes, quenched prenylated peptide cleavage fluorescence. actives 0.27% (n = 290,000);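 active = fall in fluorescence gain of 50% or more versus controls, with final raw signal at or below 3038400; inconclusive = same 50% fall but final raw signal above 3038400; inactive = fall in fluorescence gain under 50%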;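 note: plate controls were neutral control wells for no effect and wells lacking membranes for full effect; tested at 10 µM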
Env fusion inh: HIV envelope-mediated fusion inhibition; actives 1.1% (n = 360,000); inhibition, % at 12.3 µM; AID 651610; HeLa-JRFL Env/CEM21 cell fusion, luciferase;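 active = mean replicate inhibition score of at least 50 and every replicate individually at or above 50; inconclusive = only one of the two criteria met; inactive = mean below 50 and not all replicates reaching 50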;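 note: 0% = plate neutral controls and 100% = maraviroc near 300 nM; one replicate is shown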
CSC inhib: blocks cancer stem cells. actives 1.1% (n = 300,000). AID 2717. inhibition, % at 7.5 µM. cancer stem cell-like cells viability, luminescence;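 active = mean at 75% or more and at least half the replicates too; inconclusive = mean and replicates disagree; tested in HMLE shEcad cells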;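 note: 0% = median of negative and 100% = median of positive control wells; the first replicate is given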
PABP FP inh: PABP-poly(A) binding inhibition. actives 1% (n = 290,000). PABP-poly(A) RNA binding, fluorescence polarization. inhibition, % at 35 µM. AID 2014. P11940;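 active = 50% or more with normal probe brightness, or confirmed in later tests; inconclusive = above 50% with abnormal brightness, or retests that disagree; inactive = below 50% or failed in later tests; about a fifth of its hits are not listed in these tables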;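 note: calls also rest on retests at 20 µM and on dose response follow-up; controls were probe without protein and protein plus probe with vehicle; some compounds called inactive have numbers as strong as hits; many hits fall short of the cut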
Target sequence (P11940 whole entry, looked up): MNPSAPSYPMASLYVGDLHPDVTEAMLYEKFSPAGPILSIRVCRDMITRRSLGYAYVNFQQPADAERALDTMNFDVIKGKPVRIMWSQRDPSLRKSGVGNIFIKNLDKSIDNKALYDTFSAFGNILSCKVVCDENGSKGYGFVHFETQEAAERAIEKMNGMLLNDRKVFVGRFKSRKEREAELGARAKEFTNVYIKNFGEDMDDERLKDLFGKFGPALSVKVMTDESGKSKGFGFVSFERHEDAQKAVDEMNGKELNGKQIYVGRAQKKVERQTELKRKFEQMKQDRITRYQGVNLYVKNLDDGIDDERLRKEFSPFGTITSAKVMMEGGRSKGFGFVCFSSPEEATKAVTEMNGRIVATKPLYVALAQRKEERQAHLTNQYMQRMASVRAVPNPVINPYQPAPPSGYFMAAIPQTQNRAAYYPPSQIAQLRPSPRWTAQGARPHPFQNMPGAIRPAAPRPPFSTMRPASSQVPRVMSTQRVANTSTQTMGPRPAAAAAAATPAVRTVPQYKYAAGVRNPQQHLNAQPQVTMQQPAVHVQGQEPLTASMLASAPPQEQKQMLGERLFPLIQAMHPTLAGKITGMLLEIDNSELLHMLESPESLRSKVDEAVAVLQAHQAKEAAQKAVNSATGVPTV
eIF4H FP inh retest: further read-out of eIF4H FP inh, marked with its call; inhibition, %; compound at 20 µM; confirmation average;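 mean of two retest wells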
PABP FP inh retest: further read-out of PABP FP inh, marked with its call; inhibition, %; compound at 20 µM; confirmation repeats;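 mean of two retest wells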
MT1-MMP act inh RFP: recorded beside MT1-MMP act inh, whose call it bears; RFP signal change, %; measured here: RFP expression control read;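 0 = vehicle wells; hits needed this value within 50% of zero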
* = called active by the depositor; i = inactive; ? = inconclusive; · = no result given.

SMILES	MT1-MMP act inh	MT1-MMP act inh RFP	eIF4H FP inh	Yeast UUG start	Rce1 inh	Env fusion inh	CSC inhib	PABP FP inh	others
COc1ccc(-c2nnn(CCc3nn[nH]n3)n2)cc1OC	2	6	11	-28	i	1	-14	-4
C=CCSc1nnc(-c2cc(C(C)(C)C)nn2Cc2ccc(F)cc2)n1C	-2	-5	-3	·	·	17	6	8
COc1ccc(OC)c(NC(=O)C2CCCN(S(=O)(=O)c3ccc(-n4cnnn4)cc3)C2)c1 (stereo unspecified)	1	-4	0	-14	i	10	-6	2
O=C1CCc2cc(S(=O)(=O)NC(Cc3ccccc3)C(=O)NC3CCCC3)ccc2N1 (stereo unspecified)	-6	4	0	-20	i	20	-13	1
Cc1cc(S(=O)(=O)Nc2ccc(C(=O)NCC3CCCO3)cc2)ccc1F (stereo unspecified)	3	0	·	0	·	-62	-12	·
CCC[C@@H](CN[C@@H](CNC)[C@H](C)CC)NCC1CCC(C(C)(C)C)CC1 (stereo partly specified)	4	-2	-1	-4	i	13	44	-9
CC1(C)Cc2c(sc3nc(SCC(=O)O)nc(N)c23)CO1	0	2	-4	2	i	-1	-20	4
CN(C)c1ccc(CN2CCCCCC2)cc1	2	-4	6	-11	i	-25	6	20
CC(C)CC(NC(=O)C1CCC(C)CC1)C(=O)Nc1ccccn1 (stereo unspecified)	-7	-2	9	8	i	-40	·	5
O=c1[nH]c(SCc2ccccc2)nc2ccsc12	-2	4	0	·	i	-17	-1	3
Cc1ccc(S(=O)(=O)CCC(=O)OCc2ccc(Cl)c(Cl)c2)cc1	4	6	-6	·	i	·	4	1
COC(=O)c1cc2ccsc2n1Cc1nc(-c2ccc(Cl)cc2)oc1C	2	-1	-6	-6	i	7	8	10
COc1ccccc1C(=O)Nc1ccc(NC(=O)c2ccco2)c(C)c1	0	-1	-14	·	i	·	5	2
O=C(CSc1ccc2ccccc2c1)NCCc1ccc(O)c(O)c1	2	-13	-7	-6	i	17	63	?
Cc1noc(C)c1COC(=O)c1cc(S(=O)(=O)N2CCOCC2)ccc1F	0	3	·	-9	·	-4	·	·
O=C(Cc1cccs1)N/N=C/C=C\c1ccccc1[N+](=O)[O-]	2	2	3	·	i	-8	3	2
Cc1cc(C(=O)N/N=C/c2ccc3c(c2)OCO3)c(C)n1-c1ccc(F)cc1	-1	-2	-2	·	i	29	74	-10
CC(C)n1nc(CC(=O)O)c2ccccc2c1=O	-1	6	9	-15	i	6	-8	1
COc1cc(OC)cc(-n2nc(C(=O)N3CC(C)CC(C)C3)c3ccccc3c2=O)c1 (stereo unspecified)	4	-4	-9	18	i	15	·	2
COc1cc2c(cc1OC)CN(CC(=O)Nc1ccccc1C(=O)NCc1ccccc1)CC2	1	2	5	-13	i	1	6	-2
CCOC(=O)C1CCN(CCC(=O)Nc2ccccc2)CC1	1	1	9	-9	i	·	-3	6
NNc1nc2cccnc2n(CCNc2ncc(C(F)(F)F)cc2Cl)c1=O	-13	-14	1	-14	i	2	·	1
CCOC(=O)C1CCN(C(=O)CN(c2cccc(OC)c2)S(=O)(=O)c2ccccc2)CC1	-1	-2	4	2	i	·	0	8
Cc1nc(CN2CCOCC2)cc(=O)[nH]1	11	-2	2	9	i	-107	-7	-15
COc1cccc(C(=O)N/N=C2\SCC(=O)N2Cc2ccc3c(c2)OCO3)c1	-1	-2	-4	-15	i	-32	4	-3
O=C(COC(=O)/C=C/c1ccccc1)NCc1ccccc1Cl	0	2	-2	-2	i	14	·	-4
Cc1ccc(CNc2ccc3c(c2)ncn3C(C)C)cc1	3	-2	-8	·	i	-34	3	-1
CN1CCN(c2ncnc3c2ncn3[C@H]2CN(Cc3cccs3)C[C@@H](CO)O2)CC1	-2	0	·	-8	·	6	·	·
Cn1cncc1C#Cc1c(-c2ccc(S(C)(=O)=O)cc2)sc2ccccc12	-1	1	·	5	·	14	·	·
CCCNC(=O)c1c(N)n(-c2ccc3c(c2)OCO3)c2nc3ccccc3nc12	-22	10	35	-10	i	-30	-4	25
Cc1cccc[n+]1CC(=O)c1ccccc1	-2	0	-7	-13	i	4	-6	7
O=C(Nc1ccccc1)NN(C(=O)CCl)c1ccccc1	4	11	-4	-9	i	39	?	8
O=C(Nc1ccc(N2CCOCC2)c(Cl)c1)c1cc(F)c(F)cc1Cl	2	-4	12	10	i	-50	3	-5
C=CCOc1cccc(C(=O)N2CCCC(Nc3ccc(F)cc3)C2)c1 (stereo unspecified)	12	-7	-7	2	i	23	-6	2
Nc1nc2c([N+](=O)[O-])cccc2s1	1	2	2	·	i	-42	-9	-2
CC(C)(C)OC(=O)N(CCc1ccccc1)Cc1cccc(OCc2cccc(NC(=O)C3CC3)c2)c1	-13	-23	·	-4	·	-1	·	·
Cc1ccc(C(C)NC(=S)NCc2ccc(F)cc2)c(C)c1 (stereo unspecified)	-1	4	4	-36	i	-69	2	-3
NS(=O)(=O)c1ccc(NC(=S)NC(=O)c2cccs2)cc1	-2	2	-6	-4	i	4	-18	0
CCc1ccc(S(=O)(=O)NC(CC(=O)O)c2ccccc2)cc1 (stereo unspecified)	1	2	-9	·	i	·	-24	11
C(=C\c1nc(-c2ccccc2)no1)/c1ccccc1	-5	-3	0	1	i	-107	0	-5
CCOC(=O)c1ccc(NC(=O)CN2C(=O)CSC(C)C2=O)cc1 (stereo unspecified)	6	10	-10	-4	i	6	0	-7
COCCCNc1ncnc2c1sc1nc(-c3ccco3)c3c(c12)CC(C)(C)OC3	1	0	1	·	i	13	-4	2
COCCN(C(=O)Cn1nnc2ccccc21)C(C(=O)NC1CCCC1)c1ccc(OC)cc1OC (stereo unspecified)	-3	-1	5	-2	i	·	-16	-4
O=C(C[n+]1cc(-c2ccccc2)n2c1CCC2)N1c2ccccc2Sc2ccccc21	-16	-14	-7	-3	i	-7	-14	-1
C/C(Cl)=C/CSc1nc2c(c(=O)[nH]c(=O)n2C)n1C(C)C	0	0	7	-9	i	·	8	-14
O=C(C1Cc2ccccc2CN1S(=O)(=O)c1cccs1)N1CCCCC1 (stereo unspecified)	5	0	-8	-7	i	?	-10	0
CCOc1ccc(C2C(C(=O)c3cccs3)=C(O)C(=O)N2CCN2CCOCC2)cc1 (stereo unspecified)	3	2	-1	·	i	-1	-6	-3
Oc1ccc(C2C[C@H]3CC[C@@H]2C3)cc1O (stereo partly specified)	7	-5	2	-1	i	-8	13	10
COc1ccc(/C=N\NC(=O)C2CCCC2)cc1Br	1	2	-1	-3	i	-8	-12	3
COC(=O)c1cc2c(C)c(C)c3ccccn3c-2c1C(=O)OC	-30	0	127	·	i	·	0	120	eIF4H FP inh retest=-6;PABP FP inh retest=9
COc1ccc(/C=C2\SC(=O)N(CC(=O)NNC(=O)c3ccccc3O)C2=O)cc1OC	6	-1	4	·	i	23	10	14
O=C1COc2ccc(C(=O)CSc3nnc(-c4cccs4)n3Cc3ccccc3)cc2N1	-1	1	-1	-7	i	-61	21	-14
COc1ccc(CNC(=O)C2=CC(c3ccc(OC)cc3)=NS(=O)(=O)N2C)cc1	-2	4	-5	6	i	·	9	2
O=C(O)C(Cc1ccccc1N(CCO)CCO)N1C(=O)c2ccccc2C1=O (stereo unspecified)	-4	4	·	-20	·	-25	·	·
COc1ccc(-c2cc(-c3n[nH]c(=S)n3-c3ccccc3OC)[nH]n2)cc1	0	0	1	·	i	-2	-7	-4
COc1ccc(C(=O)NC2CCN(CC(=O)Nc3cccc(C)c3)CC2)cc1OC	-1	-2	3	3	i	·	-10	-2
O=C(O)C(CCCCN1C(=O)C2C3C=CC(C3)C2C1=O)N1C(=O)C2C3C=CC(C3)C2C1=O (stereo unspecified)	2	1	1	-4	i	·	-10	-1
O=C(c1ccccc1)c1c[nH]c(C(=O)NNc2ccccc2)c1	-3	-1	-4	·	i	4	97*	-1
Cc1ccc(CN(Cc2cccnc2)C(=S)Nc2cc(Cl)ccc2C)cc1	-3	-8	-2	-28	i	5	9	-2
CCOc1ccc2[nH]c(=S)sc2c1	2	7	·	-10	·	-257	·	·

Random excerpt: 4 records from the list.
SMILES	MT1-MMP act inh	MT1-MMP act inh RFP	eIF4H FP inh	Yeast UUG start	Rce1 inh	Env fusion inh	CSC inhib	PABP FP inh	others
COc1ccc(CNC(=O)C2=CC(c3ccc(OC)cc3)=NS(=O)(=O)N2C)cc1	-2	4	-5	6	i	·	9	2
COC(=O)c1cc2c(C)c(C)c3ccccn3c-2c1C(=O)OC	-30	0	127	·	i	·	0	120	eIF4H FP inh retest=-6;PABP FP inh retest=9
O=C(O)C(CCCCN1C(=O)C2C3C=CC(C3)C2C1=O)N1C(=O)C2C3C=CC(C3)C2C1=O (stereo unspecified)	2	1	1	-4	i	·	-10	-1
CCOC(=O)c1ccc(NC(=O)CN2C(=O)CSC(C)C2=O)cc1 (stereo unspecified)	6	10	-10	-4	i	6	0	-7

Remaining list, next part:
SMILES	MT1-MMP act inh	MT1-MMP act inh RFP	eIF4H FP inh	Yeast UUG start	Rce1 inh	Env fusion inh	CSC inhib	PABP FP inh	others
O=C(CCc1ccc(S(=O)(=O)NC2CCCCC2)cc1)NCc1cccnc1	0	1	-11	·	i	-41	-7	-5
COc1ccc(Cl)cc1NC(=O)CN1CCC(n2nnc3cc(C)ccc32)CC1	-2	-20	-15	·	i	51	38	-10
Cc1cc(C)cc(NC(=O)Cn2nnc(C(=O)NCc3ccc(F)cc3)c2N)c1	2	0	4	-10	i	25	0	7
CCN(CC)c1nc2c(c(=O)[nH]c(=O)n2C)n1CCCc1ccccc1	0	-7	0	-4	i	-5	-8	-6
COc1cc(OC)c(NC(=O)C(=O)CC(=O)c2ccc(C)cc2C)cc1Cl	-5	-1	6	-7	i	6	27	-12
Cc1nn(-c2ccccc2)nc1C(=O)NNC(=O)c1cccc2ccccc12	3	3	-5	-4	i	-13	-11	-2
CCn1cc(C(=O)O)c(=O)c2cnc(N3CCN(C(=S)NC(=O)c4ccc(F)c(F)c4)CC3)nc21	-1	0	3	-10	i	-7	·	4
Cc1ccc(NC(=O)C2CCN(S(C)(=O)=O)CC2)cc1	-8	-3	-1	·	i	6	-10	4
CC(C)C(C(=O)Nc1ccc2c(c1)OCO2)N1C(=O)c2ccccc2C1=O (stereo unspecified)	-1	-4	9	-1	i	-1	-10	-5
C=CCn1c(SCC(=O)Nc2nc(C)cs2)nnc1C(CO)NC(=O)c1ccccc1 (stereo unspecified)	-2	1	-4	-17	i	·	-7	-9
CS(=O)(=O)Nc1cccc(NC(=O)c2cccc3c(-c4cccc(C(N)=O)c4)coc23)c1	-6	-3	·	-13	·	14	·	·
CCC(C(=O)Nc1cc(C(=O)O)ccc1C)c1ccccc1 (stereo unspecified)	-1	2	-4	·	i	-6	-12	1
O=C(COc1ccc(Cl)cc1)Nc1ccccc1C(=O)NCc1ccco1	26	-6	-6	-5	i	·	23	-7
CCN1C(=O)/C(=C2/C=Cc3ccccc3N2CC)SC1=S	18	-2	-3	2	i	4	·	-2
CCCOc1ccc(C2c3c(oc4cc(C)c(C)cc4c3=O)C(=O)N2CCCN(C)C)cc1OCC (stereo unspecified)	10	6	-10	3	i	-21	-23	2
CC(C)(Oc1ccc(Cl)cc1)C(=O)NCC1CCCO1 (stereo unspecified)	-3	0	·	5	i	-4	-8	·
CCOC(=O)N1CCN(S(=O)(=O)c2cc(OCC(=O)NC3CCCCC3)c(C)cc2Cl)CC1	-2	-9	2	-2	·	-69	-6	-7
O=C(O)CNC(=O)/C=C/c1c(Cl)cccc1Cl	-6	0	-19	·	i	4	-4	0

Compound activity (PubChem BioAssay)
